HCMV UL50-53 inh: inhibitors of HCMV UL50-UL53 nuclear egress complex interaction; HTRF UL50-UL53 interaction, normalized percent inhibition; inhibition, % (no concentration beside the values); actives 0.15% (n = 190,000);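 active means both replicates at 50% or more, plus weaker picks with an unusually low signal ratio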;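 further: stock transfer was 100 nL into about 20 µL; 0% = negative control wells and 100% = wells with untagged competitor protein; inactives centre near -12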
GIV-Gai inh: blocks GIV peptide binding to rat Galpha-i3 | P08753 | Galpha-i3/FITC-GIV peptide fluorescence polarization, 90 min; active compounds read low; scaled: aluminum fluoride 0%, vehicle 100% | percent of control (FP), % (concentration not given with the values) | actives 0.42% (n = 210,000);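 active means replicate mean at 85% of control or lower, very high polarization wells dropped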;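 further: wells of about 15 µL received 100 nL stock; the first replicate is given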
Target sequence (P08753 whole entry, looked up): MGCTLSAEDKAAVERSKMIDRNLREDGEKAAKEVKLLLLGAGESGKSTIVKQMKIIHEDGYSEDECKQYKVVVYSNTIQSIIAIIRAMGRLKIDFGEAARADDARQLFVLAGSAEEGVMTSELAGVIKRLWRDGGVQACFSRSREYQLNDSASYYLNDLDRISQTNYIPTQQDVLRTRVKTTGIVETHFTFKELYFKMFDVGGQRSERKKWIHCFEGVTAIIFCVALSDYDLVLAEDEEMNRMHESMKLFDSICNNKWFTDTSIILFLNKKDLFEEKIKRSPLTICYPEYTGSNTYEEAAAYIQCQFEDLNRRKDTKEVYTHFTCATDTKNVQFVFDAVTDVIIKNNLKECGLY
Sa growth inh: S. aureus growth inhibition | S. aureus RN4220 growth, OD600, 20 h, 42 °C; active compounds read low | relative growth, % (concentration not given with the values) | actives 0.53% (n = 170,000);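 active means growth at 42 °C up to 50% and 20 or more points under that at 30 °C, or under 10% at both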;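 further: 300 nL library stock went into each well; scaled to the means of positive and negative controls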
Sa growth inh second temp: recorded beside Sa growth inh, whose call it bears; relative growth, %; measured here: growth at 30 °C;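 optical density after 20 h as mean of two plates; 100% = untreated growth and lower means inhibition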
* hit, by the source's call; nt = no result given; & = joins results of further samples.

molecule	Sa growth inh second temp	HCMV UL50-53 inh	GIV-Gai inh	Sa growth inh
CC(CCCCC(=O)Nc1ccc(C(F)(F)F)cc1)NCCc1cnc[nH]1 (configuration not stated)	91.7	-1.2&-39.6	nt	86.3
O=C1CC(NCC2CCCO2)C(=O)N1c1ccc(F)cc1 (configuration not stated)	nt	-27.5	100.6	nt
CC(=O)Nc1cc(C(=O)NCc2ccc(F)cc2Cl)ccc1Sc1ccc(Cl)cc1	105.8	nt	106.8	129.1
COc1ccc(N2CCN(C(c3ccccc3)c3sc4nc(-c5ccco5)nn4c3O)CC2)cc1 (configuration not stated)	94.3	nt	100.4	88.5
CCOC(=O)c1cccc(NC(=O)CNS(=O)(=O)c2cccs2)c1	78.2	-2.8	104.9	85.5
C=CCn1c(SCC(=O)Nc2ccccc2)nc2sc3c(c2c1=O)CCC3	nt	-11.9	99.0	nt
Brc1cnc2nc(-c3ccccc3)[nH]c2c1	95.7	-2.5	nt	96.0
Cc1cccc(N2C(=O)CSC23C(=O)N(CC(=O)NCc2ccccc2Cl)c2ccccc23)c1 (configuration not stated)	103.5	nt	103.2	115.6
CCC1CSC(Nc2cccc(C(F)(F)F)c2)=N1 (configuration not stated)	nt	-14.6	101.4	nt
O=C(NCc1ccco1)C1=NN(c2ccccc2)C(=O)CC1	94.2	-5.3	nt	88.1
CCOC(=O)c1cc2n(n1)CC(C)(C(=O)NC1CCC(C)CC1)N(c1ccc(F)cc1)C2=O (configuration not stated)	nt	-8.1	100.9	nt
O=C1CC(N2CCCc3ccccc32)C(=O)N1c1ccc(Br)cc1F (configuration not stated)	104.2	-4.4	104.4	104.9
O=C(Nc1ccc(C(F)(F)F)cc1)c1cnc(N2CCN(c3ccccn3)CC2)c2ccccc12	86.5	nt	99.9	86.3
COc1ccc(NC(=O)CSC2=Nc3ccccc3C3=NC(CC(=O)NCc4ccc(F)cc4)C(=O)N23)cc1 (configuration not stated)	86.0	nt	100.4	85.6
CCCN(CC)CCCNC(=O)C1CCN(c2nc3cccnc3s2)CC1	nt	-18.4	103.5	nt
O=C1CCCC/C1=C/Nc1ccc(N/C=C2/CCCCC2=O)cc1	87.9	-0.6	nt	131.5
CC(C(=O)NCc1ccccc1)n1ccc2cc(S(=O)(=O)N3CCCC3)ccc21 (configuration not stated)	91.1	nt	103.3	101.8
CC(C)(C)OC(=O)Nc1cccc(C(=O)O)c1	102.1	-1.7	nt	101.2
CN1CCN(C(=O)c2ccc(C(=O)N3CCN(C)CC3)cc2)CC1	107.3	6.4	110.3	94.7
CC1=C(C(N)=O)C(c2ccco2)C(C#N)=C(SCC(N)=O)N1 (configuration not stated)	83.2	nt	101.0	120.1
CCCn1c(=O)c2ccccc2n2c(=O)n(CC(=O)c3cc(C)ccc3C)nc12	nt	-32.4	98.2	nt
Cc1cnc(NC(=O)[C@@H](NC(=O)c2ccccc2F)C(C)C)s1	97.3	16.7	nt	93.0
CCN(CC)C(=O)Cn1cc(C(=O)C2CC2)c2ccccc21	86.2	-5.8	104.6	95.8
COC(=O)c1cc(N)cc(C(=O)OC)c1	92.1	-20.3	nt	90.2
Cc1cc(N2CCN(Cc3ccccc3Cl)CC2)n2ncc(-c3ccc(F)cc3)c2n1	nt	6.6	99.0	nt
Cc1nn(-c2ccc(Cl)cc2)c2sc(C(=O)OCC(N)=O)cc12	88.2	1.0	nt	89.6
C#Cc1ccc(C#C)cc1	112.9	-1.6	100.5	105.9
Cc1cccc(N2C(=O)C(CC(=O)Nc3cccc(F)c3)N(Cc3cccs3)C2=O)c1 (configuration not stated)	90.1	nt	106.4	108.8
Cn1c(=O)c2cc(C(=O)Nc3cccc(C(F)(F)F)c3)sc2c2ccccc21	89.2	nt	101.8	99.2
Cc1ccnn1C(C)C(=O)O (configuration not stated)	94.1	-16.8	101.4	110.2

Grouped by structure, those above with a Cl atom (4)
molecule	Sa growth inh second temp	HCMV UL50-53 inh	GIV-Gai inh	Sa growth inh
CC(=O)Nc1cc(C(=O)NCc2ccc(F)cc2Cl)ccc1Sc1ccc(Cl)cc1	105.8	nt	106.8	129.1
Cc1cccc(N2C(=O)CSC23C(=O)N(CC(=O)NCc2ccccc2Cl)c2ccccc23)c1 (configuration not stated)	103.5	nt	103.2	115.6
Cc1cc(N2CCN(Cc3ccccc3Cl)CC2)n2ncc(-c3ccc(F)cc3)c2n1	nt	6.6	99.0	nt
Cc1nn(-c2ccc(Cl)cc2)c2sc(C(=O)OCC(N)=O)cc12	88.2	1.0	nt	89.6

Other compounds follow:
molecule	Sa growth inh second temp	HCMV UL50-53 inh	GIV-Gai inh	Sa growth inh
C=Cc1ccc(COC(=O)c2nnn(-c3ccc(OCC)cc3)c2C)cc1	nt	-21.7	102.2	nt
CC1(C)OC(=O)N(CC2CCCO2)C1(C)O (configuration not stated)	91.7	2.4	nt	102.0
O=C(O)CCN1CCN(C2CCCCC2)CC1	91.7	-9.4	105.0	99.9
Cc1ccc(/C=C/c2onc(C)c2S(=O)(=O)N2CCC(C(=O)N3CCC(N(C)CC4CCCO4)CC3)CC2)cc1 (configuration not stated)	nt	-85.1	105.5	nt
Cc1ccc(C2=NS(=O)(=O)N(C)C(C(=O)Nc3cccnc3)=C2)cc1	nt	-89.5	105.6	nt
COC(=O)c1ccccc1NC(=O)CSc1nc(C)cc(C)c1C(=O)Nc1ccccc1C	nt	14.2	109.5	nt
CCc1cccc(C)c1NC(=O)NC1COc2ccccc2C1 (configuration not stated)	100.1	nt	99.0	100.5
CCc1ccc(NC(=O)CN2C(=O)CC(C)Sc3ccccc32)cc1 (configuration not stated)	88.7	nt	102.2	117.4
NC(=O)C1Cc2ccccc2CN1 (configuration not stated)	92.7	-16.4	99.4	96.2
O=C(Nc1cc(C(F)(F)F)ccc1Cl)c1cc(S(=O)(=O)NCc2ccccc2)ccc1F	80.0	nt	96.5	123.7
Cc1ccccc1Nc1nnc(C)c(=O)[nH]1	nt	-28.9	96.0	nt
COCc1cnc(Nc2nc3ccccc3o2)nc1C(=O)OC	98.2	-8.1	101.2	100.1
COC(=O)Cc1[nH]n(-c2nc3ccccc3s2)c(=O)c1C=Nc1ccc(C)cc1	84.8	nt	108.3	96.5
C=CCC(Nc1cccc(C)c1)c1ccco1 (configuration not stated)	97.4	-0.1	102.6	110.2
O=c1oc2ccccc2n1Cc1noc(Cc2c[nH]c3ccccc23)n1	nt	-35.9	128.6	nt
CCN(Cc1ccccc1)c1ncc(NS(=O)(=O)c2cc(C)ccc2C)cc1C(=O)O	nt	-17.5	116.2	nt
Cc1cc(C(=O)NN=C2CCCC2)c(C)n1-c1ccccc1	95.2	-2.4	nt	102.6
O=C(CCc1ccccc1O)N1CCN(S(=O)(=O)/C=C/c2ccccc2)CC1	87.0	-12.7	nt	92.5
O=c1oc2cc(OCc3nn[nH]n3)ccc2c2c1CCC2	nt	-11.2	101.6	nt
COc1ccc(CC2C(=O)Nc3ccc(Br)cc32)c(OC)c1 (configuration not stated)	nt	14.4	109.4	nt
CCc1ccccc1NC(=O)CSCc1cnn(-c2ccccc2)c1-n1cccc1	86.3	-13.7	96.7	99.1
COc1cc(NC(=O)CC2C(=O)N(c3cccc(C)c3)C(=O)N2Cc2ccco2)cc(OC)c1 (configuration not stated)	70.9	nt	104.6	81.2
CC(=O)Nc1ccc(S(=O)(=O)Nc2nc3ccccc3nc2Sc2nncn2C)cc1	91.6	-20.2	nt	80.1
CC(CC(=O)NCC1(N(C)C)CCCCC1)c1ccccc1 (configuration not stated)	84.7	-24.7	nt	72.1
CCCn1c(C)ccc(-c2noc(CCCC(=O)NC(C)C)n2)c1=O	nt	-26.4	100.5	nt
Cc1cccc(C)c1-n1ncc(C(=O)O)c1C1CCNCC1	91.1	-6.9	106.1	102.5
Cc1ccc(OCC(=O)OCc2cc(=O)n3ccsc3n2)cc1C	90.3	nt	101.7	89.9
COc1cccc(NC(=O)CN(C)C(=O)c2ccccn2)c1	97.9	-13.2	nt	90.0
Nc1cccc2c1C(=O)N(CC(=O)N1CCc3ccccc31)C2=O	93.1	-10.5	nt	86.3
O=C(NC1CC1)C1CCN(c2ccc(-c3ccc(F)cc3)nn2)CC1	nt	-72.2	102.0	nt
CC(C(=O)NC1(C#N)CCCCC1)N1CCNC(=O)C1 (configuration not stated)	93.4	-27.3	nt	65.9
O=C(CCS(=O)(=O)c1cccc2nsnc12)N1CCCCC1	91.7	-87.5	102.4	84.7
CCOC(=O)c1cnn(-c2cc(C)nc3c(-c4ccccc4Cl)c(C(F)(F)F)nn23)c1N	nt	-16.4	103.2	nt
CCN(CCCNC(=O)c1nn(-c2ccc(OC)c(Cl)c2)c(=O)c2c1c1ccccc1n2C)c1ccccc1	89.6	-21.7	101.3	108.2
CN(C)S(=O)(=O)c1cccc(-c2nnc(SCc3cc(Cl)cc4c3OCOC4)n2N)c1	95.5	4.8	nt	97.1
NS(=O)(=O)c1ccc(NC2SC(=O)N(c3ccccc3)C2=O)cc1 (configuration not stated)	79.8	-19.5	111.8	103.0
CCOC(=O)C1=C(NC(=O)c2cccc(F)c2)Nc2ccccc2N=C1	97.7	-2.5	nt	93.9
CCCCCCCCCCCCCCCC(=O)OC(CC(=O)O)C[N+](C)(C)C (configuration not stated)	nt	-5.1&-2.4	96.5	nt
O=C1Nc2ccccc2/C1=C\C1=Cc2ccccc2OC1	61.2	nt	97.8	83.1
CCOC(=O)CN1C(=O)C2(OCCCO2)c2ccccc21	88.5	nt	102.6	110.1
CCN(CC)c1ccc(C=Nc2ccc(Br)cc2)cc1	98.0	-33.7	nt	84.0
Cc1ccc(CC2C(=O)N(c3ccc(C(=O)O)cc3)C(=O)C2C)cc1 (configuration not stated)	85.7	-18.0	103.8	96.5
CCCNc1sc(S(=O)(=O)CC)nc1S(=O)(=O)c1ccc(C)cc1	83.0	-22.5	100.6	100.9
O=C(Cn1c(=O)n(Cc2ccccc2)c(=O)c2ccccc21)NCCC1=CCCCC1	83.4	-18.1	106.8&102.6	100.7
O=C(c1[nH]c2ccccc2c1Sc1ccc(Cl)cc1)N1CCCC1	60.4	nt	101.0	77.7
S=C(Nc1cccnc1)Nc1ccccc1N1CCCCC1	97.6	2.4	nt	92.9
CC1CCC(NC(=O)c2ccc3c(c2)nnn3C)CC1 (configuration not stated)	nt	-4.6	103.7	nt
CCCC(=O)Nc1cc(Cl)cc(Cl)c1	nt	-5.2	102.6	nt
CC1CCN(C(=O)c2ccc(C(C)(C)C)cc2)CC1	109.6	-11.0	nt	100.4
CC(C)(C)c1ccc(S(=O)(=O)NCc2nc3cccnc3n2Cc2ccccc2Cl)cc1	89.7	nt	103.5	79.2
COc1ccc(CNC(=O)CCCN2C(=O)COc3ccc(C)cc32)cc1	97.7	16.3	100.8	99.4
CSC1=C(C#N)C2(CCCCC2)C2=C(CCC2)N1	70.2	-22.1	nt	74.2
Cc1csc2ncc(C(=O)N3CCN(Cc4ccc5c(c4)OCO5)CC3)c(=O)n12	nt	-23.2	110.9	nt
Cc1c(C2CCN(S(=O)(=O)c3cn(C)cn3)CC2)c2ccccc2n1Cc1ccc(Cl)cc1	nt	-11.2	105.9	nt
CCC(C)NC(=O)C1CCCN(C(=O)c2cc(-c3ccccn3)n[nH]2)C1 (configuration not stated)	nt	-14.6	99.1	nt
O=c1c(O)c(-c2ccc3c(c2)OCO3)oc2ccccc12	101.3	9.1	107.7	109.6
C[N+]1(CC(=O)OCCCC2CCCCC2)CCCCC1	89.3	nt	101.8	97.6
O=C(N/N=C/c1ccc[nH]1)c1ccccc1O	59.9	-54.0	108.6	106.2
Cc1ccc(C(=O)CSc2nc3ccccc3c(=O)[nH]2)cc1	92.2	0.9	104.3	99.9
CCSc1nc2c(c(=O)n1C)SCC2	86.4	-30.5	109.5	93.1
Nc1nonc1-n1nnc(C(=O)N/N=C2\CCc3ccccc32)c1-c1ccccc1	113.1	2.1	102.3	101.8
Cc1cc(C)c(NC(=O)c2[nH]c3c(c2C)C(=O)CCC3)c(C)c1	82.5	-33.0	nt	112.6
O=C(c1cccc(Cl)c1)N1CCC(c2nc3ccccc3o2)CC1	82.6	-10.5	103.6	101.2

Screening results: PubChem BioAssay, ICCB-Longwood Screening Facility, Harvard Medical School
